Bioassay records (PubChem)
Autofluor counter: counter-screen for toxin protease inhibitors: compound fluorescence. compound autofluorescence counterscreen, microsphere flow cytometry; hits give high values. 360,000 compounds, 3.1% hits. fluorescence intensity (concentration not given with the values);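 active = at least 3 SD above the mean of all compounds, about 16000 in these data; inconclusive = too few beads counted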;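 also: 100 nL of 1 mM stock went into each well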
Sa ugtP lethal: kills S. aureus RN4220 lacking UgtP | S. aureus RN4220 ugtP deletion, OD600 growth, 16 h; some inactives read as strong as hits | growth inhibition, % (no concentration beside the values) | 330,000 compounds, 0.54% hits;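 active = z-score under -3 and OD600 up to 0.15 on both plates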;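 also: plate controls were untreated wells for no effect and antibiotic for full effect; wells of about 80 µL received 100 nL stock; the first replicate is given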
RN4220 kill: kills Staphylococcus aureus RN4220. S. aureus RN4220 growth, OD600, 16 h. inhibition, % (concentration not given with the values). 330,000 compounds, 0.33% hits. AID 1259311;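 active = z-score of -3 or lower and OD600 up to 0.18 on both plates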;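 also: plate controls were untreated cells for no effect and reference antibiotic for full effect; stock transfer was 100 nL into about 80 µL; one replicate is shown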
BJeLR viability: BJeLR cell viability loss | BJeLR (HRASV12) viability, CellTiter-Glo ATP luminescence, 48 h; reference of the scale not given here | inhibition, % (concentration not given with the values) | 300,000 compounds, 0.17% hits;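 active = replicate mean above 50%; inconclusive = above 50% but judged a plate artefact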;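 also: 50 nL library stock added to about 25 µL; numbers are from one replicate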
Mtb hypoxia rep: inhibitors of hypoxia-regulated fluorescent reporter in Mycobacterium tuberculosis. fluorescence inhibition, % (no concentration beside the values). 300,000 compounds, 0.1% hits. M. tuberculosis hypoxia-regulated fluorescent reporter, fluorescence. AID 1159583;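 active = 35 to 45% if threefold the growth effect, above 45% if 1.5-fold the growth effect; inactive = the rest, general growth blockers included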;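 also: wells of about 50 µL received 100 nL stock; 0% = vehicle wells and 100% = reference inhibitor wells; whole bacteria with a GFP reporter of the hypoxia response; strong numbers were not always called active; many hits fall short of the cut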
PrP UTR inh: suppresses PrP 5' UTR mRNA reporter expression; cell-based PrP 5' UTR mRNA reporter, plate reader; inhibition, % (no concentration beside the values); 340,000 compounds, 0.35% hits; AID 488862;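 active = every replicate at 50% or more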;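 also: 0 = median of the neutral control wells; tested in H4 reporter cells; numbers are from one replicate; inactives centre near -14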
Mtb hypoxia rep growth: recorded beside Mtb hypoxia rep, whose call it bears; growth inhibition, %; measured here: M. tuberculosis growth (absorbance);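 0% = vehicle and 100% = reference antibiotic; read after six days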
The depositor's hits bear a star; ? = inconclusive; nt = no result given; & = joins results of further samples.

SMILES,Autofluor counter,Sa ugtP lethal,RN4220 kill,BJeLR viability,Mtb hypoxia rep,Mtb hypoxia rep growth,PrP UTR inh
CCC(C)n1c(-c2cccc(S(=O)(=O)N(CC)CC)c2)n[nH]c1=S (centres undefined),4773,3,14,0,15,12,-9
Cc1cccc(C(=O)NCC(=O)OCCOc2ccccc2Cl)c1,?,12,3.4,3,6,-13,-15
CC(NC(=O)CN1CCN(S(=O)(=O)c2ccc(Br)cc2)CC1)c1ccccc1 (centres undefined),5507,-5,-2.6,-2,-6,1,-18
COc1cc(/C=C/C(=O)OCC(=O)NC(C)c2ccccc2)cc(OC)c1OC (centres undefined),3611,5,3.0,nt,5,6,-11
O=c1cc(N2CCN(Cc3ccccc3)CC2)[nH]c(=O)n1-c1ccc(Br)cc1,5681,3,2.1,-8,2,0,-7
COc1cccc(C2C(C(=O)c3cc4ccccc4o3)=C(O)C(=O)N2CCN2CCOCC2)c1 (centres undefined),4656,9,4.8,12,2,-2,2
O=C(O)CCCn1cc(NC(=O)c2sc3ccccc3c2Cl)cn1,4826,2,5.3,3,17,9,-13
CCOc1ccccc1CN1C(=O)c2ccccc2C1C(=O)NCC1CCCO1 (centres undefined),4224,2,0.4,5,nt,nt,-25
Cc1ccc(NC(=O)NNC(=O)c2cc3ccccc3cc2O)cc1C,6179,10,4.3,4,10,5,-24
O=C(CNCc1ccccc1Cl)Nc1ccc(C(=O)N2CCCCC2)cc1,3847,nt,nt,-3,nt,nt,-18
O=C1NC2CCc3nc4ccccc4c(=O)n3C2=Nc2ccccc21 (centres undefined),5874,3,3.3,-15,nt,nt,-18
C[C@]12CC[C@H](O)C[C@@H]1CC[C@@H]1[C@@H]2CC[C@]2(C)C(=O)CC[C@@H]12,5714,nt,nt,0,nt,nt,-16
COC(=O)C1=C(CSCc2ccco2)NC(=O)NC1c1cc(C)ccc1C (centres undefined),4563,-9,4.9,-6,nt,nt,-24
Cc1cc(SCC(=O)N/N=C/c2ccco2)nc2ccccc12,5326,nt,nt,-2,nt,nt,-15
Cc1ccc(C2CC(c3ccco3)n3ncnc3N2)cc1 (centres undefined),5843,-1,0.5,0,nt,nt,-13
CCC(=O)Nc1nc2ccccc2n1Cc1ccccc1C,3133,5,5.3,-6,nt,nt,9
CCN(CCO)c1ccc(-n2c(N)c(C(=O)OC)c3nc4ccccc4nc32)cc1,3192,-4,-18,7,8,9,5
O=C(COC(=O)Cc1ccc(Cl)c(Cl)c1)NCc1ccco1,5885,5,3.0,-10,-3,5,-21
O=C(N/N=C/c1ccc(OC(=O)c2ccco2)cc1)c1ccc[n+]([O-])c1,3284,nt,nt,5,nt,nt,-8
CS/C(=N\S(=O)(=O)c1cccs1)Nc1ccc(Br)cc1F,3093&2634,9&14,9.7&20,2,5&12,2&10,5&-31
CN(C)S(=O)(=O)c1ccc(S(=O)(=O)NCCN2CCOCC2)cc1,2925,1,-1.2,-8,-4,5,0
CC(=NNc1ccc([N+](=O)[O-])cc1[N+](=O)[O-])c1cccnc1,nt,-1,4.8,nt,-1,9,nt
Cc1cc(C)cc(C(=O)n2cnnc2N)c1,4107,11,1.0,-13,nt,nt,-18
O=C(NCCc1ccccc1)c1cc(S(=O)(=O)N2CCOCC2)ccc1F,3609,14,6.0,-19,17,9,-1
COc1cccc(-c2nc(CS(=O)CC(=O)NC3CC3)c(C)o2)c1 (centres undefined),4401,-8,-14,-2,-3,10,1
CCOc1ccc(Nc2nc3ccccc3n3nnnc23)cc1,5821,16,1.9,-8,0,0,-29
COc1ccccc1NC(=O)CSc1nnc(-c2ccoc2C)n1CC1CCCO1 (centres undefined),2940,4,5.0,4,4,6,-19
O=C(CNC(=O)c1ccc(Br)o1)NCc1ccccc1Cl,6106,4,2.0,1,5,0,-23
COc1ccc(-c2cc(=O)c3cc(C)ccc3[nH]2)cc1,4195,0,3.0,-1,20,13,-4
CCOc1ccc(C/C(O)=C2\C(=O)CC(C)(C)CC2=NCC(=O)O)cc1OCC,3512,nt,nt,-3,nt,nt,-18
CCOc1ccc(Cn2nnc(C(=O)Nc3ccc(OC)cc3OC)c2N)cc1,4467,5,2.8,-9,nt,nt,0
CCOC(=O)C1CCCc2c1[nH]c1c(C(N)=O)cccc21 (centres undefined),2654,-7,-1.8,-1,nt,nt,-5
O=C(Cn1cnc2c(nnn2-c2ccccc2)c1=O)N1CCOCC1,4264,-5,-9.5,8,5,13,4
CCC(=O)N1CCC2(CC1)Oc1ccc(Cl)cc1C(=O)C21CC(c2cccnc2)=NO1 (centres undefined),3773,-8,-1.8,0,-5,-6,-6
CCOc1ccc2oc(C(=O)NNC(=O)c3csc(N4CCOCC4)n3)c(C)c2c1,5239,nt,nt,1,nt,nt,-9
Cc1cnc(C(=O)OC(C)C(=O)Nc2ccccc2-c2ccccc2)cn1 (centres undefined),5918,10,1.4,-3,10,6,-28
Cc1cccc(-n2c(C)cc(/C=N/NC(N)=S)c2C)c1,11282,nt,nt,22,nt,nt,-20
COc1ccc(Cl)cc1NC(=O)c1[nH]nc(OC)c1[N+](=O)[O-],2977,-4,14,6,-7,7,-27
O=C(NCCS(=O)(=O)N1CCN(c2ccc(F)cc2)CC1)c1ccc2c(c1)OCO2,4106,5,5.6,-13,9,3,-15
O=C(NCc1cccnc1)c1cccc(S(=O)(=O)NCc2ccccc2)c1,?,-4,-2.0,-3,3,8,-32
CN(c1ccc(C(=O)NC2CC3CCC2C3)cc1)S(C)(=O)=O (centres undefined),nt,-1,-3.1,9,1,2,-9
CCCn1c(N)c(C(=O)CSc2nnc(N)s2)c(=O)[nH]c1=O,3064,12,7.3,nt,12,1,-14
Cc1ccc(-c2cc(C(F)F)n3ncc(C(=O)N4CCN(c5ccccn5)CC4)c3n2)cc1,5662,5,16,-22,3,6,-9
O=S(=O)(c1ccccc1)c1nc(-c2ccco2)oc1NCCCN1CCOCC1,4174,10,2.2,4,nt,nt,-11
COc1ccc(S(=O)(=O)NC(CC(=O)NCC2CCCO2)c2ccco2)cc1 (centres undefined),2508,1,1.1,3,nt,nt,-13
CCS(=O)(=O)Nc1ccc(C2=NN(C(C)=O)C(c3cccs3)C2)cc1 (centres undefined),2404,0,2.5,2,5,14,-18
Cc1cc(C(=O)CSc2nnc(-c3ccccc3F)o2)c(C)n1Cc1cccs1,20558*,-6,4.4,4,0,-1,-8
CCN(c1ccccc1)S(=O)(=O)c1ccc(OC)c(NC(=O)CCc2nc3ccccc3c(=O)[nH]2)c1,?,-4,15,-8,5,2,-38
CCCCCCn1c(O)c(C=NCCCn2ccnc2)c(=O)[nH]c1=O,2547,0,5.5,1,9,-1,-7
Cc1cc(C)c2oc(C(=O)Nc3nnc(C(C)C)s3)cc(=O)c2c1,2631,-5,21,6,-5,2,-26
Cc1ccc(S(=O)(=O)NC(=NC(Cc2ccccc2)C(=O)O)c2ccccc2)cc1 (centres undefined),6244,18,0.5,-9,-3,11,-22
O=c1[nH][nH]c2c(N=Cc3ccccc3O)ccc(F)c12,3352,-3,4.5,nt,0,2,-18
O=C(NN=Cc1ccc(OC(=O)c2cccs2)cc1)c1ccccn1,nt,-1,-0.4,nt,5,9,nt
O=C(CSCc1c(Cl)cccc1Cl)Nc1nccs1,9205,-13,7.9,-3,15,7,-19
CCCC(=O)Nc1ccc(-c2cnc(-c3ccc(NC(=O)CCC)cc3)nc2)cc1,8384,-8,7.3,-1,2,1,-11
CSCC(=O)NCC1(N(C)Cc2ccccc2)Cc2ccccc2C1,4435,2,0.9,-2,5,-1,-19
O=C(/C=C/c1ccccc1Cl)c1cccnc1,2715,nt,nt,-1,nt,nt,-24
Cc1cc(C)c(C(=O)N(C)C2CCCN(Cc3ccccc3F)C2)o1 (centres undefined),6725,3,6.8,-2,11,-3,-9
CCN1CCN(C(=O)c2cc3cc4cc(OC)ccc4nc3s2)CC1,4156,-7,-3.0,7,nt,nt,-1
Cc1cc(=O)n2nc(N3CCCC3C(=O)NCCCN3CCCCC3)sc2n1 (centres undefined),2532,-1,2.4,-3,8,4,3

The list continues.
SMILES,Autofluor counter,Sa ugtP lethal,RN4220 kill,BJeLR viability,Mtb hypoxia rep,Mtb hypoxia rep growth,PrP UTR inh
CC(C)Cc1nnc(NC(=O)CSc2nc(=O)cc(N)n2-c2ccccc2)s1,2887,-7,3.0,-23,nt,nt,-21
CCOc1ccc(NC(=O)CCNS(=O)(=O)c2ccc3c(c2)oc(=O)n3C)cc1,5319,8,0.5,7,6,4,-16
COc1ccc(N2CC(C(=O)NCCC3=CCCCC3)CC2=O)cc1 (centres undefined),4111,0,-1.6,-2,5,3,-24
CCN(C(=O)CSc1nc2ccc(OC)cc2[nH]1)C1CCS(=O)(=O)C1 (centres undefined),5414,2,-0.7,8,1,-1,-24
COc1ccc(S(=O)(=O)Nc2cc(C)on2)cc1NC(C)=O,4103,2,7.1,nt,0,7,-6
COc1ccc(-c2n[nH]c(=S)n2-c2ccc(C)cc2)cc1,4115,-6,-4.6,11,3,9,-4
Clc1cccc(-c2sc(Nc3ccccc3)n[n+]2-c2ccccc2)c1Cl,3777,-11,1.4,5,1,7,-6
Cc1noc(/C=C/N(C)C)c1S(=O)(=O)NC1CCCCC1,2759,5,4.6,8,nt,nt,3
O=C(CSc1nnnn1C1CCCCC1)Nc1ccccc1F,3477,11,5.6,3,13,9,-13
C/C=C/c1ccc(OCCCCN2CCC(C)CC2)c(OC)c1,3170,2,5.1,11,-4,2,-8
N#Cc1ccc(-c2csc(NC(=O)c3ccc(S(=O)(=O)N4CCc5ccccc5C4)cc3)n2)cc1,2060,18,9.8,22,1,-1,-7
CCN1CCN(CC(=O)Nc2ccccc2)C(=O)C1=O,5983,4,-2.3,-6,2,12,-52
O=C(NC(=S)Nc1ccccc1O)c1ccc(-c2ccc(Cl)cc2)o1,2158,-8,-0.4,-3,nt,nt,-10
CCC(=O)Nc1cccc(-c2cc3ccccc3oc2=O)c1,1983,3,6.5,-3,-1,-6,0
C=C1c2cccc(OC)c2O[C@H](C(=O)OCC)[C@@H]1CC(CC)CCCC (some centres undefined),2987,86,-0.8,nt,8,3,-9
CCn1ccc(C(=O)Nc2ccccc2SC)n1,1990,7,0.2,-3,6,0,-16
CC(=O)Nc1ccc2c(c1)Cc1c(F)cccc1-2,3626,-10,-3.9,nt,-17,11,-67
Fc1cccc(C[n+]2csc3ccccc32)c1,17119*,96*,43,2,10,4,-22
Oc1ccccc1/C=N/c1c(-c2ccco2)nc2ccccn12,3605,nt,nt,-4,nt,nt,-45
CN(C)S(=O)(=O)c1ccc(N2CCCC2)c(C(=O)NNC(=O)COc2cccc(F)c2)c1,3684,-4,-0.2,nt,-12,10,-24
Cc1ccc(N(CC(=O)NC(C)(C)C)C(=O)CCC(=O)Nc2nccs2)c(C)c1,3871,5,6.0,-1,4,11,0
O=C(c1cnn2c(C(F)(F)F)cc(-c3ccc4c(c3)OCO4)nc12)N1CCCC1,21315*,-3,-0.5,3,3,8,-64
COc1ccc(C(=O)Nc2ccc(N3CCN(C(C)=O)CC3)cc2)cc1[N+](=O)[O-],nt,-4,-1.0,-7,-3,2,nt
Nc1cc(C(=O)O)ccc1Sc1ccccc1C(=O)O,4363,-1,6.4,3,17,12,-17
CC(=O)c1sc2ccccc2c1OC(=O)c1ccco1,2532,-5,-8.0,-1,13,7,-11
Cc1cc(NC(=O)CCCS(=O)(=O)c2nc(-c3cccs3)cc(C(F)(F)F)n2)no1,4475,18,5.3,-3,nt,nt,-11
Cc1ccc2ccccc2c1NC(=O)Cn1nnc(-c2cccnc2)n1,5434,9,7.1,1,11,-17,-10

Not a hit list; any-hit rate near 4%.
